# Assay outcomes deposited in PubChem BioAssay by several laboratories.
# Beta apoptosis – inhibitors of cytokine-induced beta cell apoptosis, primary screen, luminescence | INS-1E cytokine-induced death, ATP luminescence, 48 h; percent of positive-control rescue, neutral wells zero | protection from apoptosis, % (no concentration beside the values) | 300,000 tested, 0.8% active | AID 435005, 2010;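 active = all replicates at 75% or more, or half of them and the mean; inconclusive = half reach 75% but not the mean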;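 note: 0% = cytokine-treated negative control wells and 100% = positive control rescue; higher means more ATP so stronger rescue from cytokine killing; wells of about 40 µL received 100 nL stock; the first replicate is given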
# MLL AF4-AF9 inh – inhibitors of AF4 peptide binding to AF9, primary screen, biochemical, AlphaScreen, biotin-AF4 peptide, FLAG-AF9, single point; Protein AF-9 (Homo sapiens), P42568; inhibition, % at 10 µM; 350,000 tested, 0.47% active; AID 651704, 2012;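 active = every replicate reaching a set inhibition limit, whatever the replicate mean, cut at about 25% in these data; inconclusive = mean inhibition reaches that limit but some replicates miss it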;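 note: 0% = plate neutral control median and 100% = total signal loss; the record names both 10 and 1 µM as test concentration; the first replicate is given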
# T cruzi repl – inhibitors of intracellular T. cruzi growth, primary screen, luminescence, NIH3T3 host cells. T. cruzi beta-gal in NIH3T3, 90 h. 300,000 tested, 1.4% active. inhibition, % (concentration not given with the values);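 active = mean inhibition across valid replicates above about 55%, limit read from the data; inconclusive = mean below that limit but half or more replicates reach it; inactive = mean below it, under half of replicates reach it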;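 note: signal also drops with host cell toxicity which is not excluded here; 0% = plate median of DMSO wells and 100% = zero luminescence signal; higher percent means less beta-gal luminescence so fewer parasites; stock transfer was 50 nL into about 50 µL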
# RanGTP-Impb inh – inhibitors of RanGTP-importin-beta interaction, primary screen, biochemical, FRET, CFP-Ran, YFP-importin-beta, homogeneous; Ran GTPase (GTP-bound) - importin-beta complex; cell-free CFP-Ran/YFP-importin-beta FRET ratio; inhibition, % (no concentration beside the values); 300,000 tested, 1.1% active;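 active = most replicates above 15%; inconclusive = exactly half above 15%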;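 note: 0% = DMSO wells and 100% = Ran loaded with GDP instead of GTP; wells of about 40 µL received 100 nL stock; the first replicate is given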
# Calb FLC – C. albicans growth inhibition with fluconazole, primary screen, CaCi-2 strain, Alamar Blue fluorescence; 300,000 tested, 0.57% active; C. albicans CaCi-2 (fluconazole-resistant clinical isolate) + fluconazole, 48 h; growth inhibition, % (test concentration not listed); AID 1979, 2009;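 active = most replicates above 75%; inconclusive = exactly half above 75%; inactive = most below 75%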;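 note: all wells also contain fluconazole at 8 µg/ml as a sub-toxic cotreatment; 0% = median of DMSO wells and 100% = median of geldanamycin control wells; wells of about 8 µL received 7.5 nL stock; the first replicate is given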
# Bfl-1 A1 inh – caspase 3/7 activation in MEF A1-2A-BIM cells, primary screen, A1 inhibitor project, cell-based, luminescence, HTS; Caspase-Glo 3/7 luminescence, 3 h; percent of clofoctol response, vehicle zero; caspase activation, % (test concentration not listed); 330,000 tested, 0.066% active;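 active = over half of replicate activation scores above 10%, or exactly half above 10 with the replicate mean above 10; inconclusive = replicate mean below 10 yet half the replicates above 10; inactive = over half of replicates below 10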;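 note: wells of about 30 µL received 50 nL stock; many hits fall short of the cut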
# LANA-H2B inh – blockers of LANA interaction with H2A/H2B – biochemical, FP readout, HTS, primary screen; 320,000 tested, 0.6% active; inhibition, % (test concentration not listed); cell-free LANA-H2A/H2B peptide, fluorescence polarization; AID 2629, 2010; in the data active = inhibition mostly above about 10%, no sharp cut-off; inactive = mostly below about 6.7%;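 note: stock transfer was 7.5 nL into about 10 µL; 0% = median of vehicle wells and 100% = median of positive control wells; one replicate is shown; the record names a cut of 25% in any replicate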
# Target sequence (Q9QR71 whole entry, looked up): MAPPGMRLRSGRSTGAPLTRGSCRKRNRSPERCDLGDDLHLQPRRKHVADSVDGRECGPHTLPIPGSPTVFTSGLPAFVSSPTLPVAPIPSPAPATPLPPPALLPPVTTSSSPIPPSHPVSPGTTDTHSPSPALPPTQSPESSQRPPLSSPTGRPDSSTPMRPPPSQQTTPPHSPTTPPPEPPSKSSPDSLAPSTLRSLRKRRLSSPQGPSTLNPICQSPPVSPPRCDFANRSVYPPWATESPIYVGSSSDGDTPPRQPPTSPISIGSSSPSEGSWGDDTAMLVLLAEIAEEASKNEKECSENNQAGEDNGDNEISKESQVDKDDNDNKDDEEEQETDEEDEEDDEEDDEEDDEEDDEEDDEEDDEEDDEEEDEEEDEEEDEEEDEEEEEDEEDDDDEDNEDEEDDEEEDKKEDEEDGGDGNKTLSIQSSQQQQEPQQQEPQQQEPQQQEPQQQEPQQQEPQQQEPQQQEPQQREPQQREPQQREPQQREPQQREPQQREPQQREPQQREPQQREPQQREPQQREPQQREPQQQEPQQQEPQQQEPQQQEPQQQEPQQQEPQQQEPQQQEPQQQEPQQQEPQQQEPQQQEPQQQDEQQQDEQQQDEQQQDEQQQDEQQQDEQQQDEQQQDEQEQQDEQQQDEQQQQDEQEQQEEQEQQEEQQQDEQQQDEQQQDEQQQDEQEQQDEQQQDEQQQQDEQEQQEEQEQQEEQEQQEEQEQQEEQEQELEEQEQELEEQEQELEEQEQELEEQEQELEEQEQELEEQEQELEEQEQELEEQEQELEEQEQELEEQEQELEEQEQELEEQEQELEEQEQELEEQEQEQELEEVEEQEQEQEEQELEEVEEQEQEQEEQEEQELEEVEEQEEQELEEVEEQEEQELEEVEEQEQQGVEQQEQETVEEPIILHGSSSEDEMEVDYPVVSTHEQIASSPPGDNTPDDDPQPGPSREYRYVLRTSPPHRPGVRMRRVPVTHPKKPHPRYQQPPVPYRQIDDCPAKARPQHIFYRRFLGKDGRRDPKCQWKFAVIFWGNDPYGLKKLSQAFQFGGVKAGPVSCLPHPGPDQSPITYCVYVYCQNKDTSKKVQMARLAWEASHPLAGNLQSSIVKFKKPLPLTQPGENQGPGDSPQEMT
# Vif TR-FRET – inhibitors of Vif binding to APOBEC3G peptide, primary screen, biochemical, TR-FRET, GST-Vif 1-94, biotin-A3G peptide, dose response retest (AID 1117319); Virion infectivity factor (Human immunodeficiency virus type 1 group M subtype B (isolate …; TR-FRET GST-Vif / biotin-A3G peptide binding; higher % means a stronger effect; test concentration not given here; strong numbers were not always called active; one-dose inhibition, %; IC50 in µM for titrated hits; 260,000 tested, 0.57% active;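 active = above the screen mean plus three standard deviations and confirmed in dose response; inconclusive = results disagree or hit not tested in dose response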;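 note: Vif residues 1-94 fused to GST binding biotinylated APOBEC3G peptide 110-148; 0% = full assay without inhibitor and 100% = GST in place of GST-Vif; retest series ran down from 100 µM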
# * hit, by the source's call; ? = inconclusive; · = no result given; & = joins results of further samples.
SMILES,Beta apoptosis,MLL AF4-AF9 inh,T cruzi repl,RanGTP-Impb inh,Calb FLC,Bfl-1 A1 inh,LANA-H2B inh,Vif TR-FRET
CN(CC(=O)NCc1ccccc1Cl)S(=O)(=O)c1ccc2c(c1)n(C)c(=O)c(=O)n2C,-2,-2.0,-5,0.9,0,1.2,3.5,-4%
COc1ccccc1CNC(=O)Cn1cccc1,-2,·,0,1.7,-7,0.7,3.4,2%
COc1cccc(NC(=O)CN(C)C(=O)CNC(=O)c2sc3ccccc3c2Cl)c1,-5,3.0,·,·,·,-0.3,4.3,-20%
COc1ccc(S(=O)(=O)N2CCOC2CNC(=O)C(=O)NCc2ccco2)cc1OC (stereo not given),0,0.3,3,-1.3,0,0.1,-1.8,-1%
CCOc1ccc(N2CC(C(=O)Nc3nnc(Cc4ccc(OC)c(OC)c4)s3)CC2=O)cc1 (stereo not given),-2,-2.4,5,5.2,-1,0.4,0.3,·
Cc1nc(=O)c(-c2ccccc2)c(C)n1-c1ccccc1C(=O)O,5,·,-11,-0.6,-5,-0.1,0.7,28%
S=c1nc(NCc2ccc3c(c2)OCO3)c2ccccc2[nH]1,-1,-4.4,-8,?,-8,0.0,-10,1%
CCOc1ccc(CN2CCN(Cc3[nH]c4ccccc4c3C)CC2CCO)cc1 (stereo not given),-1,22,53,7.0,-14,-0.1,5.8,25%
CCCCCCC(O)(CCN1CCCCC1)c1ccccc1 (stereo not given),7,0.6,10,1.6,-4,0.4,-8.6,-1%
COc1ccc(NS(=O)(=O)c2cc(N)ccc2N2CCOCC2)cc1,3,0.7,9,-0.1,-8,-0.4,-3.3,·
Cc1ccc(-n2ncc3c2CC(C)(C)CC3NC(=O)CCc2cnn(C)c2)cc1 (stereo not given),-7,-2.7,-6,3.0,2,0.2,-0.2,-2%
COc1ccc(S(=O)(=O)N[C@@H](Cc2ccccc2)C(=O)N2CC[C@@]3(O)CCCC[C@H]3C2)cc1,-6,·,4,4.4,-1,0.7,2.2,4%&2%
CCOc1ccccc1-c1nc(-c2cc3ccc(C)cc3[nH]c2=O)no1,2,·,31,2.5,4,0.9,0.1,3%
O=C(c1ccc(Cl)cc1)c1cnc(Nc2ccccc2)s1,-2,·,17,2.3,11,0.1,0.3,6%
Cc1ccc(C(=O)NCC(=O)OCC(=O)Nc2ccc3[nH]c(=O)[nH]c3c2)cc1,2,0.1,-9,-0.3,·,0.6,1.8,1%
Fc1ccc(CSc2ccc3nnc(-c4cccs4)n3n2)cc1,5,-2.1,13,1.9,-44,0.0,7.5,-1%
CCOc1cc(/C=N/NC(=O)CCn2nnc3ccccc32)ccc1O,1,1.3,-11,-3.6,-2,0.8,-8.3,·
COC(=O)c1cc(C(=O)OCC(=O)N2CCCCC2)cc([N+](=O)[O-])c1,1,0.0,·,·,·,0.3,-4.0,1%
O=C(NC(=S)Nc1cccc(Cl)c1N1CCCCC1)c1cccs1,12,1.8,17,1.9,43,0.3,0.1,8%
CC(C)CC1(C)NC(=O)N(CC(=O)Nc2ccccc2Br)C1=O (stereo not given),-3,-0.4,·,·,·,0.2,0.0,-5%
Cc1ccc(Cl)c(NC(=O)COC(=O)c2ccccc2C(=O)c2ccc(Cl)c([N+](=O)[O-])c2)c1Cl,-2,·,-22,1.4,27,1.7,7.3,·
CC1(C)C2([N+](=O)[O-])CN(CCO)CC1([N+](=O)[O-])CN(CCO)C2,-1,·,-2,4.2,-6,0.1,6.2,11%
CCOC(=O)c1cc(C)sc1NC(=O)CSc1nnnn1C,4,-0.5,-15,1.4,-3,0.0,-4.0,·
CC(=O)N(C)C1(c2nnnn2CCOC(=O)Nc2cccc3ccccc23)CCCC1,-4,·,3,-2.3,-10,0.1,6.6,-7%
Cc1cccc(NC(=S)NNC(=O)c2ccco2)c1,6,·,-9,-2.8,15,-0.8,-1.6,10%
CC(C)(C)NC(=O)NC(=O)CN1CCN(C(c2ccccc2)c2ccccc2)CC1,1,4.1,13,·,18,-0.8,-2.4,-3%
NNC(=S)Nc1ccccc1Cl,8,-2.9,2,?,-8,-4.5,-4.7,-17%
NC(=S)Nn1c(CCC(=O)O)ccc1-c1ccccc1,4,-2.3,-19,-1.5,8,-0.4,2.9,·
Cc1cc(C(=O)NCc2csc(-c3ccccc3)n2)no1,2,-3.5,-15,3.9,1,0.1,-0.4,·
COc1cc2c(cc1OC)C(C)N(S(=O)(=O)c1cnc(Cl)c(Cl)c1)CC2 (stereo not given),20,·,18,1.4,9,-0.9,-0.1,·
COc1cccc(C(=O)NCC(c2cccs2)N2CCc3ccccc32)c1 (stereo not given),13,1.6,13,4.0,19,0.5,-0.7,3%
COc1ccccc1-c1nnc(-c2ccc(N3CCOCC3)cc2)o1,5,·,16,5.6,38,-0.9,1.6,-7%
CCc1ccc(Nc2n[n+](-c3ccccc3)c(-c3c(Cl)cccc3Cl)s2)cc1,108*,·,59*,-2.8,20,-0.2,-0.3,·
Cc1ccc(Sc2ccc(NC(=O)CCl)cc2)c(C)c1,3,-0.5,44,0.1,-44,1.6,-4.3,·
O=C(Nc1nc(-c2cc(Cl)sc2Cl)cs1)c1ccccc1,-1,·,11,4.9,32,0.5,2.6,2%
O=C(NC1CC1)C1=C[C@@H](c2ccc3c(c2)OCO3)C[C@@H](OCc2ccc(CO)cc2)O1,3,-2.3&-1.3,9,3.1,12,?,4.6,?
Cc1c(C(=O)NCCN(C)C)oc2ccc(S(=O)(=O)N3CCCC3)cc12,1,2.4,35,-2.8,-5,-0.1,0.4,·
CCOc1ccc(NC(=O)c2cccc3ccccc23)cc1,5,-2.4,0,2.0,-20,-0.9,1.7,·
Cc1nc2ccc(Br)cn2c1NC(C)(C)C,2,·,-4,1.1,-20,1.8,2.5,26%
N#Cc1ccsc1NC(=O)CN1CCCCCC1,-3,·,-14,1.3,11,1.1,11,-3%
CC1(C)NC(=O)N(CC(O)COc2ccccc2C(=O)Nc2ccccc2)C1=O (stereo not given),-1,·,2,9.1,-10,0.1,-1.2,-4%
COc1ccc(C(=O)NCCc2nnc(SCc3nc4ccccc4c(=O)[nH]3)n2C)cc1,-2,·,0,-0.8,?,-1.0,-0.6,17%
Cc1cc(C(=O)CSc2nnc(N)s2)c(C)n1CCc1ccc(Cl)cc1,-1,·,28,-1.9,-11,0.9,5.2,1%
COc1ccc(NC(=O)CN2CCC(C)CC2)cc1,6,·,-4,-0.5,-3,0.2,0.6,-4%
O=C1c2ccccc2C(=O)N1CCCCN(C(=O)c1cccc([N+](=O)[O-])c1)c1ccc(Cl)cc1,-4,·,27,2.7,13,0.2,4.7,5%
CCN1CCN(c2cc(N3CCc4ccccc4C3)c(F)cc2[N+](=O)[O-])CC1,10,·,28,-2.8,30,0.7,-3.6,?
COC(=O)c1sccc1NC(=O)/C=C/c1ccc(Cl)cc1,10,2.6,11,?,22,-0.2,-0.4,22%
O=C(O)c1nccnc1C(=O)Nc1ccc(S(=O)(=O)N2CCOCC2)cc1,-3,-2.8,-17,4.0,-3,-1.0,1.3,-3%
Cc1cc(NC(=O)COC(=O)c2ccc(NS(=O)(=O)c3ccc(C)c(C)c3)cc2)no1,-5,·,-6,?,-3,-0.7,12,1%
COc1ccc(S(=O)(=O)n2nc(OC(=O)c3ccc(C)cc3)cc2N)cc1,-2,·,18,-0.7,6,0.5,-3.5,71%
Cc1ccc(CCC(=O)Nc2nccs2)o1,2,9.2,-17,4.1,-2,-0.2,1.6,-6%
CCOC(=O)CSc1nc2cc(C(=O)N3CCC(C(N)=O)CC3)ccc2c(=O)n1-c1ccccc1,·,·,-9,-3.0,3,-0.7,-0.3,6%
CC(C)Nc1nc2ccccc2c(=O)[nH]1,-8,0.1,-8,-5.2,0,0.8,-4.0,5%
Cc1cc(C)c(S(=O)(=O)Nc2ccc(O)cc2)cc1C,-5,·,-4,-0.9,-6,-0.6,-2.1,7%
O=S(=O)(c1cc(Cl)ccc1Cl)N1CCc2ccccc21,2,1.6,18,2.0,-5,-0.2,1.1,1%
CCOC(=O)[C@H]1CCC[C@@H](NS(=O)(=O)c2ccc(NC(C)=O)cc2)C1,·,·,-20,1.7,-3,0.0,-1.3,0%
Cc1cccc(CS(=O)(=O)Cc2ccc(C(=O)NCCN3CCCCC3C)o2)c1 (stereo not given),-3,·,13,6.4,-2,0.0,-1.2,5%
Nc1ccccc1SCC(=O)N1CCc2ccccc21,·,·,6,1.7,0,-2.8,2.5,3%
O=C(Nc1ccc(F)cc1)c1cccnn1,1,1.5,6,2.4,2,0.0,1.2,0%
O=C(CSc1nc2ccccc2c(=O)n1NC(=O)Cc1ccccc1)NCc1ccccc1,4,·,5,-2.9,-1,·,-3.2,71%
Cc1ccccc1C(=O)NC(=S)Nc1ccc(Oc2ccc(Cl)cc2)cc1,1,·,20,-1.0,23,0.2,-0.2,?

# Reprinted from the entries so far for reference:
SMILES,Beta apoptosis,MLL AF4-AF9 inh,T cruzi repl,RanGTP-Impb inh,Calb FLC,Bfl-1 A1 inh,LANA-H2B inh,Vif TR-FRET
CC1(C)NC(=O)N(CC(O)COc2ccccc2C(=O)Nc2ccccc2)C1=O (stereo not given),-1,·,2,9.1,-10,0.1,-1.2,-4%
COc1ccc(C(=O)NCCc2nnc(SCc3nc4ccccc4c(=O)[nH]3)n2C)cc1,-2,·,0,-0.8,?,-1.0,-0.6,17%
Cc1cc(C(=O)CSc2nnc(N)s2)c(C)n1CCc1ccc(Cl)cc1,-1,·,28,-1.9,-11,0.9,5.2,1%

# Single entries from the list.
# Reading for O=C(Nc1ccc(F)cc1)c1cccnn1 in LANA-H2B inh: 1.2
# Reading for CC(C)Nc1nc2ccccc2c(=O)[nH]1 in T cruzi repl: -8
# Reading for CC1(C)NC(=O)N(CC(O)COc2ccccc2C(=O)Nc2ccccc2)C1=O (stereo not given) in Calb FLC: -10
# Reading for O=S(=O)(c1cc(Cl)ccc1Cl)N1CCc2ccccc21 in MLL AF4-AF9 inh: 1.6
# Reading for Cc1cc(NC(=O)COC(=O)c2ccc(NS(=O)(=O)c3ccc(C)c(C)c3)cc2)no1 in LANA-H2B inh: 12
# Reading for Cc1ccccc1C(=O)NC(=S)Nc1ccc(Oc2ccc(Cl)cc2)cc1 in Beta apoptosis: 1
